Assay outcomes (PubChem BioAssay)
TRPML1 inh = human mucolipin-1 channel inhibition; Q9GZU1; TRPML1-inducible cells, Ca2+ dye fluorescence, FDSS; active compounds read low; inhibition of EC80 agonist-evoked calcium signal; activity change, negative = inhibition, % (concentration not given with the values); 390,000 tested, 0.02% active; in the data active means activity change below about -50%; inconclusive means about -30% to -50%; inactive means above about -30%;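 also: stimulus is agonist 54-4 at its EC80 concentration; % is scaled to controls: 0 for no effect and ±100 for the full control effect; the text of the record puts the active cut at -80%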
Target sequence (Q9GZU1 whole entry, looked up): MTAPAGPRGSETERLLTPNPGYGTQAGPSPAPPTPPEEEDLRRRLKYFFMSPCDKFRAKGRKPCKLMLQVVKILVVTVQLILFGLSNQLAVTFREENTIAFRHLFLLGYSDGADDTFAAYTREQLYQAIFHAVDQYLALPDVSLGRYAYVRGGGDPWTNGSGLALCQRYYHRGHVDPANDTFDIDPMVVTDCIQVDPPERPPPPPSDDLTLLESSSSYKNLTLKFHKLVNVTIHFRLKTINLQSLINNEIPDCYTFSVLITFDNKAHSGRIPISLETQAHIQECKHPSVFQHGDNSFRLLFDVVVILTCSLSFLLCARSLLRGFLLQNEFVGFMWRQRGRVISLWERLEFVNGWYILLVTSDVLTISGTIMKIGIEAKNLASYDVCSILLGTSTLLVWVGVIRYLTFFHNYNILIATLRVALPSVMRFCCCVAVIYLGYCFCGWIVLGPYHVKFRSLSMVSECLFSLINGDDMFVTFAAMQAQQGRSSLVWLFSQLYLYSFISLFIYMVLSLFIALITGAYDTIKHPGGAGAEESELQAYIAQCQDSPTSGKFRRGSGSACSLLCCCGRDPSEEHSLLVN
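Tet-induced TRPML1-DL cells loaded with Ca8 no-wash calcium dye were read kinetically on FDSS. Compound addition was followed by EC80 agonist 54-4 (4 uM final); inhibition was read over 110 s.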
TRPV1 potentiator = human TRPV1 potentiation. TRPV1-expressing cells, Fluo-8 calcium influx, capsaicin EC20 potentiation; host cell line not named in the record; control for the full effect not named in the record. potentiation, % at 8.33 µM. 320,000 tested, 0.02% active. AID 540277; active means potentiation above 80%; inconclusive means 30% to 80%; inactive means below 30%; also: 0% is about no effect
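Cells expressing TRPV1 were dye-loaded with Fluo-8 and read kinetically: 10 s baseline, 3 min after compound (agonist portion), then 2 min after EC20 capsaicin (allosteric enhancer portion). Calcium-bound dye fluorescence at 480/520 nm.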
gsp agonist = agonists of gsp mutant (McCune-Albright syndrome) | gsp mutant cells, cAMP HTRF, 30 min; control for the full effect not named in the record | Potency, µM (series often up to 76.9 µM), inactives show top-dose activation (cAMP increase), actives largely listed as activators | 340,000 tested, 0.13% active; active = well fitted activation curve with a large enough effect; inconclusive = small, poorly fitted or top-dose-only effect, or another doubt; inactive = no such curve, though single readings can be large or run the other way; cell line not stated here;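 also: phosphodiesterase inhibitor Ro 20-1724 added with compounds to block cAMP breakdown; potency is read from the fitted curve at half-maximal effect; nearly all actives have a fitted effect of over 60% in size; about a fifth of the inactives were tested at one dose only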
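Cells in DMEM/10% FBS with G418 were pretreated with compounds in DMSO plus […] (300 uM stock) for 30 min at 37C. cAMP was measured by HTRF (cAMP-d2 plus anti-cAMP antibody-K) after 30 min at room temperature.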
gsp antagonist = antagonists of gsp mutant (McCune-Albright syndrome); AID 624288; gsp-mutant cells, cAMP HTRF, 30 min; control for the full effect not named in the record; 340,000 tested, 0.4% active; Potency, µM (doses to about 76.9 µM), without a hit: at the top dose activity change, negative = inhibition, actives largely listed as inhibitors; active = falling curve of any shape with a large fitted effect; inconclusive = falling curve, mostly with a smaller effect; inactive = flat or rising curve; cell line not stated here;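 also: intracellular cAMP measured with PDE inhibitor Ro 20-1724 present during compound exposure; potency is read from the fitted curve at half-maximal effect; % is scaled to controls: 0 for no effect and ±100 for the full control effect; nearly all actives have a fitted effect of over 65% in size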
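Cells in G418 medium, seeded 16-24 h, 37C; buffer exchange to DPBS + 1 mM CaCl2, 0.5 mM MgCl2, 0.05% BSA; cpds in DMSO + […] (300 uM stock), 30 min 37C; HTRF cAMP detection.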
Sfp PPTase inh = Sfp phosphopantetheinyl transferase inhibition; Biochemical Sfp PPTase activity, qHTS; AID 1490; 310,000 tested, 3.5% active; Q9F4F7; Potency, µM, without a hit: max response, negative = inhibition, usual class: inhibitors; active = well fitted inhibition curve with a large enough effect; inconclusive = small, poorly fitted or top-dose-only effect, or another doubt; inactive = no such curve, though single readings can be large or run the other way;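 also: the enzyme is Sfp with the accession as filed and its product quenches rhodamine fluorescence; potency is read from the fitted curve at half-maximal effect; 0% = enzyme reaction without inhibitor and -100% = no enzyme wells; top concentration of the series not given in the record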
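Step 1, compound plus 15 nM Sfp-PPTase, 15 min, room temperature. Step 2, add rhodamine-CoA (5 uM) and BHQ-2-YbbR (12.5 uM). Step 3, read 525/598 nm fluorescence at 0 and 30 min.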
Menin MLL FP FL = displaces fluorescein MLL peptide from human menin; Fluorescence polarization, fluorescein-MLL peptide displacement from menin; FP activity change, % at 61.4 µM; 290,000 tested, under 10 active; AID 1766; inconclusive = falling polarisation curve, or a change in total fluorescence; inactive = total fluorescence flat and polarisation flat or rising; no compound was filed as active; the % refers to the polarisation; negative = inhibition;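 also: % of control where 0% means no effect; inhibitors lower the polarisation; unlabelled MLL peptide was the positive control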
ClpP mod = qHTS Assay for Activators of ClpP. purified B. subtilis ClpP, FRET peptide cleavage, 20 min. Potency, µM (top dose mostly 57.5 µM), for inactives: top-dose activity change, negative = active. 340,000 tested, 1.9% active; active = well fitted falling curve with a large enough effect; inconclusive = small, poorly fitted or top-dose-only effect; inactive = no such curve, though single readings can be large or run the other way; also: potency is read from the fitted curve at half-maximal effect; the source files actives as falling curves though it sought activators and does not explain the sign; nearly all actives have a fitted effect of over 65% in size; many hits overshoot -100%
Target sequence (P80244 whole entry, looked up): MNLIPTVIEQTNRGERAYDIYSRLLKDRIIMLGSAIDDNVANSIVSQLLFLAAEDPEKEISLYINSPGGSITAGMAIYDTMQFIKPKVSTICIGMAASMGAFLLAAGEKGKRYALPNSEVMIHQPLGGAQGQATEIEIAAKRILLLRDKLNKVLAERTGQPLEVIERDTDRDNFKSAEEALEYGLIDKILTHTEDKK
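ClpP 10 microg/mL final, pH 8 Tris/KCl buffer with BSA, glycerol, Tween-20; compound pinned in; FRET-FV substrate; RT 20 min; Ex320/Em430; ΔFRET vs ADEP 5.8 microM, DMSO, no enzyme.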
* marks the source's active call; other numbers are inactive results; ? = inconclusive; . = not tested or not shown; [ ] = another dose, or the depositor's remark.

SMILES | TRPML1 inh | TRPV1 potentiator | gsp agonist | gsp antagonist | Sfp PPTase inh | Menin MLL FP FL | ClpP mod
COc1cc(C(=O)NCc2nnc(SCC(=O)Nc3cc(C)cc(C)c3)o2)cc(OC)c1OC | 10 | 4 | -33%[inhibitor] | 14% | -4% | 1.5 | 1.4%
COc1ccccc1C1/C(=C(\O)c2ccc3c(c2)OCCO3)C(=O)C(=O)N1CCCN(C)C (configuration not stated) | . | 28 | . | . | 5% | 0.7 | .
O=c1c2ccccc2nc(-c2ccc([N+](=O)[O-])cc2)n1O | -7 | 12 | 43%[15.4 µM] | 9% | -20% | 2.0 | .
O=c1[nH]c(C2CCN(S(=O)(=O)c3ccccc3)CC2)nc2c1nnn2Cc1ccc2c(c1)OCCO2 | -9 | 2 | -17% | -16% | 10% | . | 0.5%
Cc1ccc(N2C(=O)C3C4C=CC(C4)C3C2=O)cc1C (configuration not stated) | -2 | 6 | 30% | 0% | 18% | 1.1 | -5.4%
CC(=O)c1ccc(N2CCN(C(=O)C3CCC3)CC2)cc1 | 1 | -35 | 5% | -2% | 89µM* | 1.9 | -4.9%
O=c1c2ccccc2c(C=Nc2ccc(S(=O)(=O)N3CCCCC3)cc2)c(O)n1-c1ccc(Cl)cn1 | -23 | -1 | 4% | 6% | -10% | ? | -23%
Cc1cccc(NC(=O)CSc2nncn2N)c1C | -8 | . | -28% | . | . | . | -0.6%
CCN(CC)C(=O)CSc1nc2ccc(NC(=O)CSc3nccn3C)cc2s1 | -4 | 9 | 1% | -23% | 4% | 2.5 | -1.8%
CC(=O)Nc1ccc(N)cc1 | 1 | 8 | . | -2% | . | . | 0.7%
Cc1nnc(SCC2=C(C(=O)O)N3C(=O)C(NC(=O)Cn4nc(C)c(Cl)c4C)C3SC2)s1 (configuration not stated) | -4 | -1 | -3% | 10% | 0% | ? | .
Cc1ccc(S(=O)(=O)NN2C(=O)/C(=C/c3ccc(C(=O)O)cc3)SC2=S)cc1 | -6 | 12 | -15%[15.4 µM] | -12% | 1% | -13 | 0.8%
Cc1cc(O)cc(O)c1C(=O)Cc1cscn1 | 14 | -20 | -4% | 3% | -9% | 3.3 | 28µM*
C/C(CCC(=O)OC[C@H]1O[C@H](C#Cc2ccccc2)C=C[C@@H]1Oc1ccc(C)cc1)=N\O[C@@H](C)CN1CCCCc2nc(C)c(C)cc21 | . | 14 | . | . | -5% | 11 | .
CCCCN1C(=S)NC[C@@H]1Cc1ccccc1 | 1 | 22 | ? | ? | 20% | -1.6 | 1.4%
O=C(O)CCCC(=O)N1N=C(c2ccccc2)CC1c1ccc2c(c1)OCO2 (configuration not stated) | -1 | 10 | -13%[15.4 µM] | -21% | -2% | -0.4 | -1.2%
CCN1C(=O)/C(=C2/Sc3ccc(OC)cc3N2C)SC1=Nc1ccc(OC)cc1 | 2 | ? | 14%[15.4 µM] | . | 4% | 2.5 | .
CCOC(=O)Cn1nc(/C=C/c2ccccc2)ccc1=O | -28 | . | -6% | 4% | 2% | -0.8 | ?
O=C(N/N=C/c1ccc2c(c1)OCO2)c1ccc2ccccc2n1 | 3 | -3 | 0%[15.4 µM] | -31% | 22% | -5.0 | .
COc1cc(N2C(=O)C=CC2=O)c(OC)cc1Cl | 41 | 3 | -12% | 3% | 3.5µM* | 1.2 | .

Filtered by structure: those above containing a COOH group.
SMILES | TRPML1 inh | TRPV1 potentiator | gsp agonist | gsp antagonist | Sfp PPTase inh | Menin MLL FP FL | ClpP mod
Cc1nnc(SCC2=C(C(=O)O)N3C(=O)C(NC(=O)Cn4nc(C)c(Cl)c4C)C3SC2)s1 (configuration not stated) | -4 | -1 | -3% | 10% | 0% | ? | .
Cc1ccc(S(=O)(=O)NN2C(=O)/C(=C/c3ccc(C(=O)O)cc3)SC2=S)cc1 | -6 | 12 | -15%[15.4 µM] | -12% | 1% | -13 | 0.8%
O=C(O)CCCC(=O)N1N=C(c2ccccc2)CC1c1ccc2c(c1)OCO2 (configuration not stated) | -1 | 10 | -13%[15.4 µM] | -21% | -2% | -0.4 | -1.2%

Carrying on:
SMILES | TRPML1 inh | TRPV1 potentiator | gsp agonist | gsp antagonist | Sfp PPTase inh | Menin MLL FP FL | ClpP mod
Cc1ncsc1CCOC(=O)c1cccnc1 | 25 | 3 | 0% | 3% | 0% | -0.3 | -0.8%
CCN1C(=O)C2C(c3cccc(F)c3)NC(CC)(C(=O)OC)C2C1=O (configuration not stated) | 9 | 1 | -6% | 2% | 7% | 4.8 | -0.2%
COc1cccc(NC(=O)N(CCCN2CCOCC2)C(C)c2cc3ccccc3o2)c1 (configuration not stated) | 4 | -20 | -8% | 2% | 2% | 0.4 | 0.0%
CCN(CC)C(=O)Oc1ccc2c(=O)c(-c3ccccc3)coc2c1 | 9 | -6 | -18% | ? | ? | -1.6 | -0.1%
Oc1ccc2n[nH]nc2c1 | -24 | 2 | 4% | 0% | 10% | 2.5 | ?
CCC1(CC)C(=O)N=C2c3ccccc3C(=O)N21 | 17 | 3 | 31% | 3% | 39%[activator] | 2.8 | -15%
CCCc1nnc(NC(=O)OCC)s1 | 6 | -7 | 20%[15.4 µM] | 5% | 15% | -0.2 | .
COc1ccc(-c2nn(-c3ccccc3)cc2/C=N/NC(=O)c2cccc(S(=O)(=O)Nc3ccccc3Cl)c2)cc1 | 13 | -13 | 12% | ? | 25% | -3.2 | ?
CCCNC(=O)OC[C@H]1O[C@H](CCO/N=C/[C@@H](NS(=O)(=O)c2ccc(C)cc2)[C@H](C)/C=C/CC(=O)OC)C=C[C@@H]1Oc1ccc(OC)cc1 | . | 3 | . | . | 30%[activator] | 0.5 | .
O=C(CN1CCOCC1)Nc1scc(-c2ccccc2)c1C(=O)N1CCOCC1 | 13 | -7 | 14% | -15% | 1% | -0.6 | -0.6%
O=C(CN1CCN(S(=O)(=O)c2ccccc2)CC1)Nc1ccc2c(c1)CCC2 | -8 | 9 | 16%[15.4 µM] | -30% | -15% | 4.4 | 0.4%
COc1ccc(-c2cn3c(C)c(C(=O)N4CCN(c5ccc(F)cc5)CC4)sc3n2)cc1 | 12 | 2 | -113%[inhibitor] | -6% | 5% | -2.3 | -2.5%
CC(=O)N(Cc1ccc(F)cc1)C1=C(NCCc2ccccc2)C(=O)c2ccccc2C1=O | 13 | -8 | 0% | -11% | -11% | 1.6 | 1.1%
CC(NS(=O)(=O)c1ccc2c(c1)CC(C)N2C(=O)C1CC1)c1ccccc1 (configuration not stated) | 5 | -4 | ? | -15% | 4% | -10.0 | -0.3%
CC1(C)Cc2c(sc(NC(=O)c3ccc(C(=O)c4ccccc4)cc3)c2C#N)C(C)(C)N1 | 3 | 7 | -14%[15.4 µM] | -18% | 7% | . | -9.8%
CCCNC(=O)NC(=O)COC(=O)CC(NC(N)=O)c1ccc(Cl)cc1 (configuration not stated) | 27 | 16 | -17% | 8% | ? | 4.2 | -1.5%
CC1(C)OC(=O)C(=CNc2ccccc2F)C(=O)O1 | -4 | 5 | -26% | 13% | 8% | 1.1 | -2.3%
O=C(Nc1ccc(Cl)cc1)N1CCN(Cc2ccc3c(c2)OCO3)CC1 | -18 | -14 | -8% | 0% | 7% | -3.3 | -1.9%
O=C(COC(=O)c1nn(-c2ccccc2C(F)(F)F)cc1O)c1ccc(OC(F)F)cc1 | 4 | 10 | 49%[15.4 µM] | 3% | . | . | .
Nc1nnc(CC(=O)N/N=C/c2ccc(-c3ccccc3)o2)s1 | 15 | 0 | 14% | -4% | ? | 0.8 | -17%

Pulled one by one from the entries so far (4):
SMILES | TRPML1 inh | TRPV1 potentiator | gsp agonist | gsp antagonist | Sfp PPTase inh | Menin MLL FP FL | ClpP mod
CC(=O)N(Cc1ccc(F)cc1)C1=C(NCCc2ccccc2)C(=O)c2ccccc2C1=O | 13 | -8 | 0% | -11% | -11% | 1.6 | 1.1%
COc1ccc(-c2cn3c(C)c(C(=O)N4CCN(c5ccc(F)cc5)CC4)sc3n2)cc1 | 12 | 2 | -113%[inhibitor] | -6% | 5% | -2.3 | -2.5%
O=C(CN1CCN(S(=O)(=O)c2ccccc2)CC1)Nc1ccc2c(c1)CCC2 | -8 | 9 | 16%[15.4 µM] | -30% | -15% | 4.4 | 0.4%
COc1cccc(NC(=O)N(CCCN2CCOCC2)C(C)c2cc3ccccc3o2)c1 (configuration not stated) | 4 | -20 | -8% | 2% | 2% | 0.4 | 0.0%

Carrying on:
SMILES | TRPML1 inh | TRPV1 potentiator | gsp agonist | gsp antagonist | Sfp PPTase inh | Menin MLL FP FL | ClpP mod
COc1ccc(CCN(C)C(=O)CN2C(=O)NC3(CCCCCC3)C2=O)cc1OC | -9 | -19 | -1% | 8% | . | . | -3.1%
Cc1ccc(-c2ccnc3nc(Sc4ncc(C(F)(F)F)cc4Cl)nn23)cc1 | -7 | -1 | -34% | -16% | 3% | -3.4 | 7.1µM*
COc1ccc(C2CC(=O)c3cnc(N4CCc5ccccc54)nc3C2)c(OC)c1 (configuration not stated) | . | 7 | . | . | 6% | 2.2 | .
COc1ccc(NC(=O)CN2CCN(S(=O)(=O)c3cccs3)CC2)cc1Cl | 17 | 7 | -8% | -21% | . | . | 1.8%
Cc1cc(=O)oc2cc(OCC(=O)NCc3ccccn3)ccc12 | -13 | 14 | -14% | -2% | 7% | -4.0 | 25µM*
CNC(=S)Nc1ccc([N+](=O)[O-])c(C)c1 | -1 | 2 | ? | 1% | 16% | 0.3 | 0.4%
COc1cc2nc(CN3CCN(S(=O)(=O)c4cc(C)ccc4C)CC3)[nH]c(=O)c2cc1OC | 3 | . | -31% | -14% | . | . | .
O=C(Nc1ccccc1N1CCCCC1)C1CC(=O)N(c2ccccc2F)C1 (configuration not stated) | 12 | -10 | -1% | 1% | . | . | -2.5%
C[C@H](O)[C@@H]1C(=O)N2CCc3c([nH]c4ccccc34)[C@@H]2C[C@@H]1N(C)C(=O)Nc1ccc(F)cc1 | -7 | . | ? | . | . | . | ?
CCCCCOC(=O)C1=C(C)NC(=O)NC1c1ccc(OC)cc1 (configuration not stated) | 3 | 3 | 10%[15.4 µM] | 2% | 5% | -4.1 | 17%
Cc1c(NC(=O)COC(=O)CSc2ccc(C(N)=O)cc2[N+](=O)[O-])c(=O)n(-c2ccccc2)n1C | -4 | -3 | 1%[15.4 µM] | 8% | 5% | . | -2.8%
